Vaccinia stage = blocks a specific stage of Vaccinia orthopoxvirus infection; Vaccinia-infected cells, mCherry/Venus stage reporter fluorescence; active compounds read low; some inactives read as strong as hits; activity change (mCherry), % (no concentration beside the values); 0.01% of 89,000 active; AID 1053133;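 active = mCherry past -33% and 40 or more points under the early reporter, replicates agreeing; inconclusive = past -33% without that gap or agreement; tested in A549 cells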;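 also: scaled between vehicle wells and reference inhibitor wells; 23 nL library stock went into each well; one replicate is shown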
Vaccinia stage Venus = second read-out of Vaccinia stage, no call of its own (marks repeat the call); activity change (Venus), %; measured here: Venus reporter, other viral stage;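 negative = less Venus signal; first of two replicates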
The depositor's hits bear a star; u = inconclusive; x = no result given; & = joins results of further samples. An excerpt, so the mix of outcomes need not match the whole.

No.	mol	Vaccinia stage	Vaccinia stage Venus
1	COc1cccc(C#Cc2cnc3c(c2)C(=O)N([C@H](C)CO)C[C@@H](C)[C@H](CN(C)C(=O)C2CC2)O3)c1	19	2
2	O=C(c1cccnc1)N1CC2(C1)[C@H](c1ccccc1)[C@@H](CO)N2Cc1ccc(Cl)cc1	0	8
3	CCC(=O)N(C)C[C@@H]1Oc2cc(C3=CCCC3)ccc2S(=O)(=O)N([C@H](C)CO)C[C@H]1C	12	15
4	C[C@H]1CN([C@@H](C)CO)S(=O)(=O)c2ccc(C3=CCCC3)cc2O[C@@H]1CN(C)C(=O)CN(C)C	-28	-24
5	C[C@@H]1CN([C@H](C)CO)C(=O)c2cc(C#CC(C)(C)O)cnc2O[C@H]1CN(C)C(=O)C1CC1	10	4
6	CCC(=O)N[C@@H]1CC[C@H](CC(=O)NCCN2CCCCC2)O[C@H]1CO	8	7
7	CO[C@@H]1CN(C)C(=O)c2cc(NC(=O)C3CCC3)ccc2OC[C@H](C)N(CC2CCCCC2)C[C@@H]1C	-9	-6
8	C[C@@H]1CN([C@H](C)CO)C(=O)c2cc(-c3cccc(F)c3)cnc2O[C@H]1CN(C)Cc1ccccn1	3	1
9	CCC(=O)N1[C@H](CNC(=O)COC)[C@H](c2ccc(-c3ccccc3)cc2)[C@@H]1CO	4	8
10	CN1c2ccc(-c3ccccc3F)cc2[C@@H]2[C@@H](CCN2C(=O)CN2CCOCC2)[C@H]1CO	-9	-9

(further entries)
No.	mol	Vaccinia stage	Vaccinia stage Venus
11	COc1ccccc1-c1ccc2c(c1)[C@@H]1[C@@H](CCN1C(=O)C1CCOCC1)[C@H](CO)N2	-2	1
12	C[C@H](CO)N1C[C@H](C)[C@H](CN(C)C(=O)Nc2ccc3c(c2)OCCO3)OCc2cn(nn2)CCCC1=O	18	16
13	N#Cc1ccc(-c2ccc3c(c2)[C@@H]2[C@@H](CCN2C(=O)c2ccccc2F)[C@H](CO)N3)cc1	-6	-10
14	CO[C@@H]1CN(C)C(=O)c2cc(NC(=O)Cc3ccccc3)ccc2OC[C@H](C)N(CC2CC2)C[C@@H]1C	18	5
15	C[C@H]1CN([C@@H](C)CO)C(=O)c2cccc(NS(=O)(=O)c3ccccc3)c2O[C@@H]1CN(C)S(=O)(=O)c1cn(C)cn1	24	11
16	COCC#Cc1ccc([C@H]2[C@H](CO)N3CCCCN(C(=O)Nc4cc(F)ccc4F)C[C@@H]23)cc1	-2	-8
17	C[C@@H]1CN([C@@H](C)CO)C(=O)Cc2cc(NC(=O)c3ccncc3)ccc2O[C@@H]1CN(C)C	11	11
18	C[C@@H]1CCCCO[C@H](CN(C)C(=O)CCC(F)(F)F)[C@H](C)CN([C@H](C)CO)C(=O)c2cc(NC(=O)CCC(F)(F)F)ccc2O1	0	-3
19	COc1ccc(S(=O)(=O)Nc2ccc3c(c2)C(=O)N([C@@H](C)CO)C[C@H](C)[C@H](CN(C)Cc2ccc(C(=O)O)cc2)O3)cc1	19	16
20	C[C@@H]1CCCCO[C@@H](CN(C)C(=O)Nc2ccc3c(c2)OCO3)[C@H](C)CN([C@@H](C)CO)C(=O)c2cc(NC(=O)Nc3cccc4ccccc34)ccc2O1	19	10

Further results follow:
No.	mol	Vaccinia stage	Vaccinia stage Venus
21	CC(=O)N1[C@@H]2Cn3c(ccc(C4=CCCCC4)c3=O)[C@H]1[C@@H](C(=O)NCc1cc(F)cc(F)c1)[C@@H]2CO	-5	-6
22	CO[C@@H]1CN(C)C(=O)c2ccc(NS(=O)(=O)c3ccccc3C)cc2OC[C@@H](C)NC[C@H]1C	6	7
23	Cc1noc(C)c1NC(=O)Nc1ccc2c(c1)C(=O)N([C@H](C)CO)C[C@@H](C)[C@@H](CN(C)S(=O)(=O)c1ccc(Cl)cc1)OCCCC[C@H](C)O2	27	2
24	C[C@@H]1CN([C@@H](C)CO)C(=O)c2cc(NC(=O)CCC(F)(F)F)ccc2O[C@H]1CN(C)Cc1ccc2c(c1)OCO2	-11	-10
25	C[C@@H]1CN([C@H](C)CO)C(=O)CCCn2cc(nn2)CO[C@H]1CN(C)Cc1ccc(Cl)c(Cl)c1	-3	3
26	C[C@H](NC(=O)C[C@@H]1C=C[C@@H](NC(=O)Nc2ccc3c(c2)OCO3)[C@@H](CO)O1)c1ccccc1	1	2
27	Cc1noc(C)c1NC(=O)NCC[C@@H]1CC[C@H](NC(=O)c2ccncc2)[C@H](CO)O1	-8	4
28	CO[C@H]1CN(C)C(=O)c2cc(NC(=O)CC(F)(F)F)ccc2OC[C@@H](C)N(CC2CC2)C[C@@H]1C	0	-6
29	CN(C)CC#Cc1ccc([C@H]2[C@@H](CO)N3CCCCN(S(=O)(=O)c4ccccc4)C[C@@H]23)cc1	2	-6
30	COc1ccc(CN(C)C[C@H]2OCc3cn(nn3)CCCC(=O)N([C@@H](C)CO)C[C@@H]2C)cc1	6	8

Entries of single compounds, quoted from the list:
COc1ccc(CN(C)C[C@H]2OCc3cn(nn3)CCCC(=O)N([C@@H](C)CO)C[C@@H]2C)cc1 is entered as Vaccinia stage: 6; Vaccinia stage Venus: 8
C[C@@H]1CN([C@H](C)CO)C(=O)CCCn2cc(nn2)CO[C@H]1CN(C)Cc1ccc(Cl)c(Cl)c1 is entered as Vaccinia stage: -3; Vaccinia stage Venus: 3
C[C@H](NC(=O)C[C@@H]1C=C[C@@H](NC(=O)Nc2ccc3c(c2)OCO3)[C@@H](CO)O1)c1ccccc1 is entered as Vaccinia stage: 1; Vaccinia stage Venus: 2

Remaining list, next part
No.	mol	Vaccinia stage	Vaccinia stage Venus
31	COCC#Cc1ccc2c(c1)O[C@@H](CN(C)S(=O)(=O)c1ccc(F)cc1)[C@H](C)CN([C@@H](C)CO)S2(=O)=O	-10	-8
32	O=C(C[C@H]1C[C@@H]2c3cc(NC(=O)C4CCOCC4)ccc3O[C@@H]2[C@H](CO)O1)NCCN1CCCCC1	23	12
33	CNC(=O)C[C@@H]1CC[C@H]2[C@@H](COc3ccc(NS(=O)(=O)c4ccccc4C)cc3C(=O)N2C)O1	-5	-3
34	C[C@@H]1CN([C@@H](C)CO)C(=O)c2cc(NC(=O)Cc3cn(C)c4ccccc34)ccc2O[C@@H]1CN(C)CC1CCCCC1	u	x
35	C[C@@H]1CCCCO[C@@H](CN(C)S(=O)(=O)c2ccccc2)[C@@H](C)CN([C@H](C)CO)C(=O)c2cc(NC(=O)CCC(F)(F)F)ccc2O1	19	12
36	CCN1[C@@H]2Cn3c(ccc(-c4ccc(OC)cc4)c3=O)[C@H]1[C@@H](C(=O)OC)[C@@H]2CO	9	6
37	O=C(c1cnccn1)N1CC[C@H]2[C@H](CO)Nc3ccc(-c4ccccc4)cc3[C@H]21	19	5
38	O=C(CN1CCOCC1)N[C@H]1CC[C@H](CCn2cc(C3CCCC3)nn2)O[C@@H]1CO	32	21
39	Cc1ccc(S(=O)(=O)NCC[C@@H]2CC[C@@H](NC(=O)c3ccccn3)[C@@H](CO)O2)cc1	10	5
40	COc1ccc(CNC(=O)C[C@@H]2CC[C@@H]3[C@H](COc4ccc(NC(=O)C5CC5)cc4C(=O)N3C)O2)cc1	-9	-15

Remaining list, next part:
No.	mol	Vaccinia stage	Vaccinia stage Venus
41	CCC(=O)Nc1ccc2c(c1)C(=O)N(C)[C@H]1CC[C@H](CC(=O)NCc3ccc(OC)cc3)O[C@@H]1CO2	8	-3
42	O=C(O)[C@@H]1[C@@H](CO)[C@@H]2Cn3c(ccc(-c4cccc(F)c4)c3=O)[C@H]1N2CCc1ccccc1	-11	2
43	C[C@H]1CN([C@@H](C)CO)C(=O)c2cc(C3=CCCC3)cnc2O[C@H]1CN(C)Cc1ccc(F)cc1	-10	-6
44	C/C=C/c1ccc(C2[C@@H]3CN(C(=O)c4ccc5c(c4)OCO5)C[C@H]2N3)cc1 (stereo partly specified)	u	-8
45	COc1ccc(CN2[C@@H](CO)[C@@H]3c4ccccc4N(C(=O)c4ccccc4)C[C@@H]32)cc1	-13	-4
46	COc1ccccc1NC(=O)N(C)C[C@H]1Oc2cc(Br)ccc2S(=O)(=O)N([C@H](C)CO)C[C@H]1C	4&-15	1&-8
47	CN(C[C@@H]1N[C@H](CO)[C@H]1c1ccccc1)C(=O)c1ccccn1	5	-3
48	Cc1ccc(S(=O)(=O)Nc2ccc3c(c2)CC(=O)N([C@H](C)CO)C[C@H](C)[C@H](CN(C)C(=O)NC(C)C)O3)cc1	0	6
49	C[C@@H]1CN([C@H](C)CO)C(=O)c2cccc(NC(=O)c3nc4ccccc4s3)c2O[C@H]1CN(C)S(=O)(=O)c1cccs1	-1	-4
50	COc1ccccc1NC(=O)N(C)C[C@H]1Oc2ncc(C#CCC(C)C)cc2C(=O)N([C@H](C)CO)C[C@H]1C	-5	-19

Following part
No.	mol	Vaccinia stage	Vaccinia stage Venus
51	O=C(N[C@@H]1CC[C@@H](CCn2cc(Cc3ccccc3)nn2)O[C@H]1CO)c1cnccn1	4	1
52	CN1CCN(C(=O)C[C@H]2C[C@H]3c4cc(NC(=O)Nc5ccc(C(F)(F)F)cc5)ccc4O[C@H]3[C@@H](CO)O2)CC1	5	4
53	Cc1cccc(CN(C)C[C@@H]2Oc3ncc(-c4cccc(C(F)(F)F)c4)cc3C(=O)N([C@H](C)CO)C[C@@H]2C)c1	u	x
54	CCC(=O)N(CC)C[C@@H]1[C@@H](c2ccc(-c3ccccc3)cc2)[C@H](CO)N1C(C)=O	-3	-1
55	COCC#Cc1cnc2c(c1)C(=O)N([C@H](C)CO)C[C@@H](C)[C@H](CN(C)C(=O)C1CCC1)O2	10	14
56	O=C(Nc1cccc(F)c1)N1CC(=O)N2[C@H](CO)[C@@H](c3ccc(-c4ccccc4F)cc3)[C@@H]2C1	-32	-26
57	CN(C)CC(=O)Nc1ccc2c(c1)[C@@H]1C[C@@H](CC(=O)NCc3cccnc3)O[C@H](CO)[C@@H]1O2	7	1
58	Cn1cnc(S(=O)(=O)N2C[C@H](O)COC[C@@H]3O[C@H](CC(=O)NC4CCCC4)CC[C@H]32)c1	-6	-3
59	Cc1noc(C)c1NC(=O)Nc1ccc2c(c1)C(=O)N([C@@H](C)CO)C[C@H](C)[C@H](CN(C)Cc1ccc(Cl)c(Cl)c1)OCCCC[C@@H](C)O2	u	x
60	COc1cccc(C(=O)N2C[C@@H]3[C@H](c4ccccc42)[C@@H](CO)N3C(=O)c2ccc(F)cc2)c1	7	3

New compounds follow:
No.	mol	Vaccinia stage	Vaccinia stage Venus
61	CO[C@H]1CN(C)C(=O)c2ccc(NC(=O)C3CC3)cc2OC[C@@H](C)N(C(=O)NC(C)C)C[C@@H]1C	3	6
62	O=C(C[C@H]1CC[C@H]2[C@@H](COC[C@H](O)CN2Cc2cc(F)ccc2F)O1)N[C@H]1CCN(Cc2ccccc2)C1	-21	-3
63	O=C(C[C@H]1CC[C@@H](NC(=O)C2CCOCC2)[C@@H](CO)O1)NCc1ccncc1	10	-1
64	C[C@H](NC(=O)[C@H]1[C@H](CO)[C@H]2Cn3c(ccc(-c4ccccc4F)c3=O)[C@@H]1N2)c1ccccc1	3	2
65	C[C@H]1CN([C@@H](C)CO)C(=O)Cc2cc(NC(=O)CCN3CCOCC3)ccc2O[C@@H]1CN(C)Cc1ccc(Oc2ccccc2)cc1	-8	-9
66	CO[C@@H](C(=O)N(C)C[C@H]1OCc2ccccc2-c2ccccc2C(=O)N([C@H](C)CO)C[C@@H]1C)c1ccccc1	20	1
67	C[C@@H]1CN([C@H](C)CO)S(=O)(=O)c2ccc(C#CC3CC3)cc2O[C@H]1CN(C)C(=O)c1ccccn1	-8	-7
68	O=C(C[C@H]1C[C@@H]2c3cc(NC(=O)C4CCC4)ccc3O[C@@H]2[C@@H](CO)O1)NCCc1ccccc1	-17	-11
69	COc1ccc(CN(C)C[C@@H]2OCCCC[C@@H](C)Oc3ccc(NC(=O)Nc4ccc(F)cc4)cc3C(=O)N([C@H](C)CO)C[C@@H]2C)cc1	-20	-15
70	COCC(=O)N1CC2(C1)CN(Cc1cccc(Cl)c1)[C@H](CO)c1[nH]c3cc(OC)ccc3c12	27	8

Further compounds follow:
No.	mol	Vaccinia stage	Vaccinia stage Venus
71	O=C(Cc1ccccn1)N[C@H]1CC[C@@H](CCn2cc(-c3cccnc3)nn2)O[C@@H]1CO	16	9
72	C[C@@H](NC(=O)C[C@H]1C[C@@H]2c3cc(NC(=O)C4CCOCC4)ccc3O[C@@H]2[C@@H](CO)O1)c1ccccc1	-9	0
73	CN(C)CC#Cc1ccc([C@@H]2[C@@H](CO)N3CCCCN(CC4CCOCC4)C[C@H]23)cc1	2	-4
74	C[C@@H]1CN([C@@H](C)CO)C(=O)c2cc(NS(=O)(=O)c3cn(C)cn3)ccc2O[C@H]1CN(C)Cc1ccc(C(=O)Nc2ccccc2N)cc1	34	12
75	CO[C@@H]1CN(C)C(=O)c2cc(NS(=O)(=O)c3ccc(C)cc3)ccc2OC[C@H](C)NC[C@H]1C	-1	4
76	COC(=O)C[C@H]1CC[C@H]2[C@@H](COC[C@H](O)CN2S(=O)(=O)c2cn(C)cn2)O1	5	-1
77	C[C@@H]1CN([C@@H](C)CO)C(=O)Cc2cc(NC(=O)CCCN(C)C)ccc2O[C@H]1CN(C)Cc1ccc(C(F)(F)F)cc1	-11	-13
78	CCS(=O)(=O)N1CC2(C1)[C@@H](c1ccccc1)[C@H](CO)N2Cc1ccccn1	6	8
79	COc1ccccc1-c1cn(CC[C@@H]2CC[C@@H](NC(=O)CCN3CCCCC3)[C@@H](CO)O2)nn1	10	8
80	O=S(=O)(c1ccccc1)N1C[C@@H]2[C@H](c3ccccc31)[C@@H](CO)N2Cc1ccc2c(c1)OCO2	u	x
81	CCc1nc(N2[C@@H](C#N)[C@H](c3ccccc3-c3ccccc3C)[C@@H]2CO)sc1C	3	4

Some of the entries above, set out differently.
Every second line gives: Vaccinia stage, Vaccinia stage Venus
(78) CCS(=O)(=O)N1CC2(C1)[C@@H](c1ccccc1)[C@H](CO)N2Cc1ccccn1
→ 6, 8
(79) COc1ccccc1-c1cn(CC[C@@H]2CC[C@@H](NC(=O)CCN3CCCCC3)[C@@H](CO)O2)nn1
→ 10, 8

Assay outcomes deposited in PubChem BioAssay by Broad Institute.
